Bioassay records (PubChem BioAssay)
Bfl-1 A1 inh: inhibitors of the anti-apoptotic protein A1, read as caspase activation; MEF A1-2A-BIM cells, Caspase-Glo 3/7 luminescence, 3 h; percent of clofoctol response, vehicle zero; caspase activation, % (test concentration not listed); hit rate 0.066% among 330,000;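 active = over half of replicate activation scores above 10%, or exactly half above 10 with the replicate mean above 10; inconclusive = replicate mean below 10 yet half the replicates above 10; inactive = over half of replicates below 10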;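 note: wells of about 30 µL received 50 nL stock; many hits fall short of the cut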
Beta cell apopt: beta cell apoptosis inhibition | INS-1E cytokine-induced death, ATP luminescence, 48 h; percent of positive-control rescue, neutral wells zero | hit rate 0.8% among 300,000 | protection from apoptosis, % (test concentration not listed) | AID 435005;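 active = all replicates at 75% or more, or half of them and the mean; inconclusive = half reach 75% but not the mean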;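 note: 0% = cytokine-treated negative control wells and 100% = positive control rescue; higher means more ATP so stronger rescue from cytokine killing; wells of about 40 µL received 100 nL stock; the first replicate is given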
T cruzi repl: T. cruzi replication inhibition; T. cruzi beta-gal in NIH3T3, luminescence, 90 h; inhibition, % (test concentration not listed); hit rate 1.4% among 300,000; AID 1885;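 active = mean inhibition across valid replicates above about 55%, limit read from the data; inconclusive = mean below that limit but half or more replicates reach it; inactive = mean below it, under half of replicates reach it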;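 note: signal also drops with host cell toxicity which is not excluded here; 0% = plate median of DMSO wells and 100% = zero luminescence signal; higher percent means less beta-gal luminescence so fewer parasites; stock transfer was 50 nL into about 50 µL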
UCH37 inh: human UCH37 deubiquitinating enzyme inhibition. purified proteasome/UCH37, Ub-AMC cleavage fluorescence. inhibition, % (no concentration beside the values). hit rate 0.33% among 330,000;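 active = mean of two replicates above 20%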;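 note: 0% = compound-free wells with enzyme and 100% = wells lacking proteasome; stock transfer was 100 nL into about 20 µL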
Target sequence (Q9Y5K5 whole entry, looked up): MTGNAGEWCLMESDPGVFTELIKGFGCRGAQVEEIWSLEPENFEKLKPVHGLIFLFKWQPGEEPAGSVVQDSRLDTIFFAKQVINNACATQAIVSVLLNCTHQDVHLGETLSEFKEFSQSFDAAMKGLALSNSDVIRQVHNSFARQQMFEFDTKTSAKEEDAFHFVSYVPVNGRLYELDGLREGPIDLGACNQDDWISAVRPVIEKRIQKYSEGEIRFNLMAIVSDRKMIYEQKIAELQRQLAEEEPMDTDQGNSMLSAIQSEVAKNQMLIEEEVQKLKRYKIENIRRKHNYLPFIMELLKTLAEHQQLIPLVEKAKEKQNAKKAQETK
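system = Proteasome-associated human UCH37 deubiquitinase | amount = 0.15 nM proteasome as dispensed | medium = pH 7.4 Tris-HCl (50 mM) with ovalbumin, ATP-MgCl2, DTT | incubation = 30 min preincubation with enzyme, 25 min cleavage at room temperature | detection = AMC fluorescence 355/460 nm | read-out basis = percent inhibition | controls = no-proteasome and no-compound wells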
Beta2AR agonist: human beta-2 adrenergic receptor agonism by FAP; P07550; Am2.2-beta2AR cells, FAP receptor internalization, flow cytometry; reference of the scale not given here; response, % (test concentration not listed); hit rate 0.43% among 340,000; AID 504454;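 active = response above a set limit, near 3 SD of response in nonfluorescent compounds, cut at about 42% in these data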;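 note: stock transfer was 100 nL into about 11 µL; a reference agonist was the positive control; negative values mostly stem from fluorescent compounds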
Target sequence (P07550 whole entry, looked up): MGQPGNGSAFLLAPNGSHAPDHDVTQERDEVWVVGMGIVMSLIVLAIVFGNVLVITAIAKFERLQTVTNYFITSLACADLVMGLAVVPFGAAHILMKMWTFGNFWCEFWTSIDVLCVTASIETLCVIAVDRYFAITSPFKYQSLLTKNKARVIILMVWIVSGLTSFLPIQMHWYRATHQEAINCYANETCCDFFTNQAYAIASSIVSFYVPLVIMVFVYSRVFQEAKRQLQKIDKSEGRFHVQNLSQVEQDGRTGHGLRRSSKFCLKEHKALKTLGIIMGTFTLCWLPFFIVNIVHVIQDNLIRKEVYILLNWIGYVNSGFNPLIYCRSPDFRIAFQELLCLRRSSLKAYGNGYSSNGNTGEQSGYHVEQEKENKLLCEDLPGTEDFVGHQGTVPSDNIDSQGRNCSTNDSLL
Calb FLC: affects C. albicans growth with fluconazole. AID 1979. hit rate 0.57% among 300,000. growth inhibition, % (no concentration beside the values). C. albicans CaCi-2 (fluconazole-resistant clinical isolate) + fluconazole, Alamar Blue growth, 48 h;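 active = most replicates above 75%; inconclusive = exactly half above 75%; inactive = most below 75%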;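 note: all wells also contain fluconazole at 8 µg/ml as a sub-toxic cotreatment; 0% = median of DMSO wells and 100% = median of geldanamycin control wells; wells of about 8 µL received 7.5 nL stock; the first replicate is given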
LANA-H2A inh: blocks KSHV LANA binding to histone H2A/H2B. Q9QR71. cell-free LANA-H2A/H2B peptide, fluorescence polarization. inhibition, % (test concentration not listed). hit rate 0.6% among 320,000. AID 2629; in the data active = inhibition mostly above about 10%, no sharp cut-off; inactive = mostly below about 6.7%;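 note: stock transfer was 7.5 nL into about 10 µL; 0% = median of vehicle wells and 100% = median of positive control wells; one replicate is shown; the record names a cut of 25% in any replicate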
RanGTP-Impb inh: inhibitors of RanGTP-importin-beta interaction, primary screen, biochemical, FRET, CFP-Ran, YFP-importin-beta, homogeneous. cell-free CFP-Ran/YFP-importin-beta FRET ratio. inhibition, % (no concentration beside the values). hit rate 1.1% among 300,000. AID 2216;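 active = most replicates above 15%; inconclusive = exactly half above 15%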;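 note: 0% = DMSO wells and 100% = Ran loaded with GDP instead of GTP; wells of about 40 µL received 100 nL stock; the first replicate is given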
An asterisk follows results filed as active; ? = inconclusive; / = not tested or not shown.

SMILES	Bfl-1 A1 inh	Beta cell apopt	T cruzi repl	UCH37 inh	Beta2AR agonist	Calb FLC	LANA-H2A inh	RanGTP-Impb inh
Nc1nc2nc[nH]c2c(=O)[nH]1	0.1	0	11	0.6	-3	/	-1.3	-5.6
COc1ccc(OCC(=O)N/N=C/c2ccncc2)cc1	-1.5	0	-2	/	-6	6	0.1	3.1
COCc1cc(Sc2ccc(Br)cc2)nc(-c2ccccc2)n1	-0.9	1	11	2.8	-5	-3	1.6	-2.7
Nc1cc(C(=O)OCC(=O)NCc2ccco2)ccc1Cl	-1.7	2	-5	-5.4	3	6	-1.6	6.2
O=C(NC(=S)NCc1ccccc1)c1ccc(Br)o1	0.8	4	-7	/	-1	-15	5.5	1.5
C=C(C)C(=O)Nc1nnc(-c2cccs2)s1	-0.6	-6	-9	-0.2	-3	-9	1.6	-4.1
COc1ccc(CCN2C(=O)C3C4CC(C5C(C(N)=O)=NOC45)C3C2=O)cc1OC (stereo unspecified)	0.4	-14	-14	0.2	2	-2	-2.0	-0.2
CC(C)NC(=O)N(C)C[C@H]1Oc2ccc(NS(=O)(=O)c3cccs3)cc2C(=O)N([C@H](C)CO)C[C@@H]1C	0.4	4	/	7.1	-11	/	-5.5	/
CC1CN(C(=O)c2cc(S(=O)(=O)N3CCN(c4ccccc4)CC3)ccc2Cl)CC(C)O1 (stereo unspecified)	-0.3	6	-7	0.3	-4	-7	-2.0	3.5
C=CCc1ccc(OCc2ccc(C(=O)Nc3ccc(NC(C)=O)cc3)o2)c(OC)c1	0.3	/	7	-16	-15	-9	-0.8	-1.9
Cc1noc(C)c1COc1ccccc1C(=O)N(C)Cc1ccc(C(C)(C)C)cc1	1.4	23	/	1.0	-3	/	-0.3	/
COc1cc(/C(C)=N/NC(=O)C(O)(c2ccccc2)c2ccccc2)ccc1O	0.2	-2	-2	/	8	-2	-5.8	?
COc1ccc(Cn2nnnc2C(c2ccccc2Cl)N2CCN(C)CC2)cc1 (stereo unspecified)	/	/	5	3.2	2	-6	/	-5.9
COc1cc(C(O)c2nc3ccccc3s2)cc(OC)c1OC (stereo unspecified)	-0.4	24	9	5.7	-1	-6	1.5	3.8
COc1ccc(Cl)cc1S(=O)(=O)N1CCN(C(=O)c2ccco2)CC1	1.8	-4	8	5.2	6	0	1.8	2.8
Cc1nc(NC(=O)/C=C/c2ccccc2)sc1C(=O)N1CCCCC1	-0.1	3	12	7.3	-1	7	1.2	3.1
Cc1ccc(OCC(=O)NNC(=O)CCC(=O)NCc2ccccc2)cc1	0.3	-10	-10	-1.9	0	-6	-1.6	3.4
N#Cc1ccc(NC(=O)c2cccs2)nc1	-5.8	4	-7	4.6	0	1	-0.1	4.1
CNC(=O)c1sc(=S)n(-c2ccc(OC)cc2)c1N	-0.4	1	-3	2.9	-4	?	-0.4	0.3
CN(C)c1ccc(C2CNC(c3ccc(Cl)c([N+](=O)[O-])c3)c3[nH]c4ccccc4c32)cc1 (stereo unspecified)	0.3	7	57*	-13	16	-2	3.2	5.0
O=C(Nc1cccc(S(=O)(=O)N2CCCCC2)c1)c1ccc(Cl)nc1	-1.6	-1	/	2.6	-17	/	5.7	/
Cc1cccc2cc(COC(=O)c3ccco3)c(=O)[nH]c12	0.7	-4	-4	-0.7	-5	5	-1.6	-1.0
CCN(CC)S(=O)(=O)c1cc(NS(=O)(=O)c2cccc(Cl)c2)ccc1C	0.1	6	8	3.2	-3	-13	1.9	-0.8
O=C(O)C1=C[C@@H](C2CCCCC2)C[C@@H](OCc2ccc(CO)cc2)O1	1.1	-2	12	-0.5	3	4	-0.9	0.1
Cc1[nH]c2ccccc2c1C(=O)COC(=O)Cn1c(C(F)(F)F)nc2ccccc21	0.5	-2	5	1.9	-4	-3	3.8	-1.4
Cc1c(CCOC(=O)CC23CC4CC(CC(C)(C4)C2)C3)sc[n+]1CC(=O)c1ccccc1	0.3	24	48	2.2	19	-13	3.1	5.0
O=C(COC(=O)C1=COCCO1)Nc1ccccc1	0.0	-2	-6	-2.6	5	-15	-1.6	-0.1
O=C(Nc1nc2ccccc2s1)c1ccc(N2CCCCC2)c([N+](=O)[O-])c1	0.5	10	?	11	3	-5	-3.7	-0.3
COC(=O)c1ccc2c(=O)n(CCCCCC(=O)O)c(=S)[nH]c2c1	1.7	-1	-3	-2.9	7	40	0.9	0.3
Cc1ccc(C(C)C)c(OCCCN2CCc3ccccc3C2)c1	?	8	49	6.1	0	-13	-1.5	4.8

Reformatted in CSV form: part of the list above.
Structure,Bfl-1 A1 inh,Beta cell apopt,T cruzi repl,UCH37 inh,Beta2AR agonist,Calb FLC,LANA-H2A inh,RanGTP-Impb inh
Cc1[nH]c2ccccc2c1C(=O)COC(=O)Cn1c(C(F)(F)F)nc2ccccc21,0.5,-2,5,1.9,-4,-3,3.8,-1.4
Cc1c(CCOC(=O)CC23CC4CC(CC(C)(C4)C2)C3)sc[n+]1CC(=O)c1ccccc1,0.3,24,48,2.2,19,-13,3.1,5.0

The list goes on.
SMILES	Bfl-1 A1 inh	Beta cell apopt	T cruzi repl	UCH37 inh	Beta2AR agonist	Calb FLC	LANA-H2A inh	RanGTP-Impb inh
CC(C)NC(=O)c1ccc(COc2ccc(C(C)(C)C)cc2)o1	0.7	/	7	2.3	18	6	-3.2	3.4
Cc1ccc(CS(=O)(=O)Cc2ccc(C(=O)NC3CCCC3)o2)cc1	-0.1	2	-20	-0.4	0	5	4.0	0.7
COCCN1C=C2C(=O)C(C)(OC(=O)CCC(=O)OC)C(=O)C(Br)=C2C=C1c1ccc(OC)cc1 (stereo unspecified)	1.0	-21	33	/	18	12	2.0	2.5
CC(C)CN1C=C2C(=O)C(C)(OC(=O)C3CCCC3)C(=O)C=C2C=C1c1ccsc1 (stereo unspecified)	-0.4	-8	-8	1.1	-1	35	1.8	-4.1
CCOCCCn1c(C)nc2c(c1=O)c1nc3ccccc3nc1n2-c1ccc2c(c1)OCCO2	-0.2	-6	3	10	/	-2	3.5	?
Cc1ccc(S(=O)(=O)NC(CN2CCOCC2)=NCCNS(=O)(=O)c2ccccc2)cc1	0.3	-3	3	0.4	8	-18	1.2	/
Cc1ccc(S(=O)(=O)N2CCOCC2)cc1NC(=O)Cn1nc(C)c([N+](=O)[O-])c1C	-0.1	-2	0	0.3	11	7	-2.0	5.9
CS(=O)(=O)NCCCc1ccccc1	-0.3	-1	-4	-4.6	-7	1	2.0	3.9
CCO[C@H]1OC(C(=O)NCc2nc3ccccc3[nH]2)=C[C@@H](c2cn(C(C)=O)c3ccccc23)[C@@H]1CCCO	0.5	9	0	1.5	-4	17	-2.2	1.2
O=C1CCc2cc(NS(=O)(=O)c3ccc(F)cc3)cc3c2N1CC3	0.6	0	-8	1.9	-1	-1	-5.1	-3.9
CCCCCCNC1=NCCS1	-0.4	-8	32	2.7	2	-30	2.5	-2.0
COc1ccc(NC(=O)CSc2nc(C3CC3)nc3ccccc23)cc1	0.4	-1	10	5.4	-11	-13	1.3	?
CCN(Cc1cc2ccc(C)cc2[nH]c1=O)C(=O)c1ccncc1	/	/	-2	-5.5	/	2	/	-1.7
CCOC(=O)C1CCCN(S(=O)(=O)c2ccc(Br)c(OC)c2)C1 (stereo unspecified)	0.7	-4	-5	1.9	4	19	-1.6	2.5
COCCNC(=O)CN(C(=O)CCC(=O)Nc1ccccn1)c1ccc(C)cc1C	-0.2	-3	-10	2.5	3	1	-4.4	1.7
O=C(O)CCCNS(=O)(=O)/C=C/c1ccccc1	1.8	0	-4	2.7	4	?	3.9	-5.5
NCCOc1ccc(C2CCCCC2)cc1	0.2	3	-22	1.5	24	-13	1.5	-1.9
CC1CCCCC1NC(=O)CN1C(=O)c2cccc(N)c2C1=O (stereo unspecified)	/	/	-14	-146	4	-35	/	-3.7
CCN(CC)CCOC(=O)c1ccc(Cl)cc1Cl	-1.4	-2	-6	0.2	3	8	-0.2	0.7
CCOC(=O)c1c(-c2ccccc2)c(C(C)=O)c(=O)n(C)c1C	0.1	-3	-6	4.0	6	-3	-1.0	?
CCn1nnnc1-c1ccc(OC)c(S(=O)(=O)N2CCCCC2)c1	1.1	/	-3	3.2	-3	-8	2.4	4.2
O=C(O)Cn1c(Cc2ccccc2)nc2ccccc21	0.1	-4	-9	/	-3	-3	2.5	3.4
Cc1ccc(-c2csc(NC(=O)CSc3nc4ccccc4[nH]3)n2)cc1	/	/	1	1.2	-2	0	/	2.0
COc1ccc(CCNS(=O)(=O)c2ccc(Br)s2)cc1	0.5	-1	-13	2.6	-7	16	-1.6	-1.9
COc1ccc(C(=O)/C=C/c2ccc(OC)c(Cn3nnc4ccccc43)c2)cc1	0.1	3	4	-2.6	8	32	-1.7	?
CC1CCCC(C)N1CCNC(=O)Cn1nc(-c2ccccc2)ccc1=O (stereo unspecified)	0.6	0	-23	2.9	2	24	-1.9	1.9
Cc1ccc(-c2cc(=O)c3cc(F)ccc3[nH]2)cc1	-0.7	7	-14	4.2	-5	23	1.1	1.7
CCCCCOc1cccc(C2C(C(=O)c3cccs3)=C(O)C(=O)N2CCN2CCOCC2)c1 (stereo unspecified)	0.9	1	12	9.9	3	1	-0.3	2.9
Cc1ccc(CS(=O)(=O)CCC(=O)NCCC2=CCCCC2)cc1	0.9	0	7	1.6	-8	-7	-2.3	-0.6
COc1ccc(CCNC(=O)CO/N=C/c2cc3c(cc2Br)OCO3)cc1OC	0.5	-4	13	/	5	6	2.4	0.6
Cn1c(=O)c2c(nc(Sc3ncccn3)n2Cc2ccccc2Cl)n(C)c1=O	-1.1	2	-5	4.1	-2	2	-1.5	?
O=C(Cc1cccs1)Nc1ccc2c(c1)C(=O)OC2	1.0	8	-38	1.2	-5	-1	0.9	-1.6
O=C(NNC(=O)C1CCN(S(=O)(=O)c2cccc(C(F)(F)F)c2)CC1)C1CC1	0.3	-4	9	2.5	-4	-2	-0.2	1.8
CC(C)[C@H](NC(=O)c1ccco1)C(=O)OCC(=O)c1ccc2c(c1)NC(=O)CO2	0.2	-2	-2	2.9	3	-11	4.8	-5.9
CCN(CCn1cccn1)C(=O)CCc1nnc(C2(c3ccc(Cl)cc3)CCC2)o1	-0.1	-2	28	-0.6	-2	-3	-2.4	-0.2
CCc1cccc(C)c1NC(=O)c1ccc2c(c1)CCN2S(C)(=O)=O	0.3	0	-28	4.9	-3	0	1.9	0.3
CCc1ccc(OCC(=O)N(C)C2CCS(=O)(=O)C2)cc1 (stereo unspecified)	0.0	-2	29	3.1	9	3	0.4	0.8
C=CCN1C(=O)C(C(C)CC)NC1=S (stereo unspecified)	0.2	-4	-13	1.6	4	26	-5.0	/
Cc1c(C(=O)NCc2ccco2)sc2nc(-c3ccccc3)cn12	-0.4	3	-20	3.0	7	-4	-0.2	0.2
CCOC(=O)C(Cc1ccc(OC)c([N+](=O)[O-])c1)NC(=O)CCC(=O)Nc1ccc(OC)cc1 (stereo unspecified)	-0.5	5	-10	1.1	0	-7	-3.0	-0.5
Cc1cc(C(F)(F)F)n(-c2nc(C(=O)NNS(=O)(=O)c3ccccc3)cs2)n1	0.5	-2	-8	2.2	-2	9	-1.9	-2.4
O=C(O)C1Nc2c(O)cccc2C2C=CCC12 (stereo unspecified)	0.2	2	/	6.8	12	/	17	/
